StopGo RLuc: FMDV 2A StopGo reporter, Renilla signal; 120,000 tested, 0.32% active; Potency, µM (highest dose often 57.5 µM), without a hit: top-dose signal change, negative = less light; HEK cells with a luciferase reporter of 2A StopGo recoding; AID 1745857; active means well fitted falling curve with a large enough effect; inconclusive means small, poorly fitted or top-dose-only effect; inactive means no such curve, though single readings can be large or run the other way; also: nearly all actives have a fitted effect of over 55% in size; overnight with compound
StopGo FLuc: lowers the firefly signal of an FMDV 2A StopGo reporter | HEK cells with a luciferase reporter of 2A StopGo recoding | 120,000 tested, 0.23% active | Potency, µM (doses to about 57.5 µM), for the others: at the highest dose signal change, negative = less light; active = well fitted falling curve with a large enough effect; inconclusive = small, poorly fitted or top-dose-only effect; inactive = no such curve, though single readings can be large or run the other way; also: nearly all actives have a fitted effect of over 60% in size; overnight with compound
* hit, by the source's call; ? = inconclusive; [ ] = dose if it differs, or a comment. % is scaled to controls: 0 for no effect and ±100 for the full control effect; potency is read from the fitted curve at half-maximal effect. Only part of the results is shown (hit frequency here may not be typical).

Sample of the layout (20 entries):
SMILES: Cc1ccc2c(COC(=O)C3(S(=O)(=O)c4ccccc4)CCCC3)cc(=O)oc2c1
  StopGo RLuc: 2% | StopGo FLuc: 9%

SMILES: CC(O)CNS(=O)(=O)c1cc(C(=O)O)ccc1Br (centres undefined)
  StopGo RLuc: 10% | StopGo FLuc: 8%

SMILES: CCCCn1cc(S(=O)(=O)c2ccc(OCC)cc2)c(=O)c2cc(C)ccc21
  StopGo RLuc: 10% | StopGo FLuc: -15%

SMILES: CCc1ccc(NC(=S)NCCCO)cc1
  StopGo RLuc: 90%[activator] | StopGo FLuc: 0%

SMILES: CN(Cc1ccccc1)C(=O)C1CCN(Cc2cc3ccccc3n2Cc2ccccc2)CC1
  StopGo RLuc: -7% | StopGo FLuc: -11%

SMILES: COC(=O)[C@H](C(C)C)N(CCCc1cn(CC2CCCCC2)nn1)S(=O)(=O)c1ccc(F)cc1Br
  StopGo RLuc: ? | StopGo FLuc: ?

SMILES: O=S(=O)(NCc1ccc(Cn2cccn2)cc1)N1CCCCC1
  StopGo RLuc: 4% | StopGo FLuc: 40%[activator]

SMILES: Cc1cc(C)c(NC(=O)CN2CCCN(c3ccc(C(F)(F)F)cn3)CC2)c(Cl)c1
  StopGo RLuc: ? | StopGo FLuc: ?

SMILES: Cc1ccc(-c2n[nH]c(=O)c3ccccc23)cc1S(N)(=O)=O
  StopGo RLuc: 86%[activator] | StopGo FLuc: 24%

SMILES: Cc1ccc(OCCOc2cccc(/C=C(/C#N)c3ccccc3)c2)cc1
  StopGo RLuc: 5% | StopGo FLuc: 103%[activator]

SMILES: CCOC(=O)c1cnn(-c2cccc(F)c2)c1C1CCNCC1
  StopGo RLuc: -16% | StopGo FLuc: -16%

SMILES: O=C(O)c1ccccc1-c1ncc(-c2ccccc2F)o1
  StopGo RLuc: -6% | StopGo FLuc: 73%[activator]

SMILES: Cc1ccccc1Nc1nn2c(=O)c3ccc(C(=O)NCC(C)c4ccccc4)cc3nc2s1 (centres undefined)
  StopGo RLuc: -1% | StopGo FLuc: -12%

SMILES: N#Cc1ccc(N2CCC(C(=O)NC(c3ccc(F)cc3)C3CCCC3)CC2)nc1 (centres undefined)
  StopGo RLuc: -4% | StopGo FLuc: 0%

SMILES: O=C(NCc1ccccc1)c1cccc2cccnc12
  StopGo RLuc: -3%[1.06 µM] | StopGo FLuc: 0%

SMILES: CCCN(CCC)C(=O)Cc1c(-c2ccc(Cl)cc2)nc2ccc(Cl)cn12
  StopGo RLuc: 51%[activator] | StopGo FLuc: 80%[activator]

SMILES: Cc1cc(=O)oc2cc(OCC(=O)NCc3ccccc3)ccc12
  StopGo RLuc: -8% | StopGo FLuc: 18%

SMILES: COc1ccc(NC(=O)CN2C(=O)COc3ccc(S(=O)(=O)NC4CCCC4)cc32)cc1OC
  StopGo RLuc: 15% | StopGo FLuc: -4%

SMILES: O=C(O)C(c1c[nH]c2cc(Cl)ccc12)N1CCN(Cc2ccccn2)CC1 (centres undefined)
  StopGo RLuc: -14% | StopGo FLuc: -12%

SMILES: CCC(CO)NS(=O)(=O)c1cc(Cl)ccc1Cl (centres undefined)
  StopGo RLuc: 47%[activator] | StopGo FLuc: -11%

Results, from the start:
SMILES: Cc1ccc2c(COC(=O)C3(S(=O)(=O)c4ccccc4)CCCC3)cc(=O)oc2c1
  StopGo RLuc: 2% | StopGo FLuc: 9%

SMILES: CC(O)CNS(=O)(=O)c1cc(C(=O)O)ccc1Br (centres undefined)
  StopGo RLuc: 10% | StopGo FLuc: 8%

SMILES: CCCCn1cc(S(=O)(=O)c2ccc(OCC)cc2)c(=O)c2cc(C)ccc21
  StopGo RLuc: 10% | StopGo FLuc: -15%

SMILES: CCc1ccc(NC(=S)NCCCO)cc1
  StopGo RLuc: 90%[activator] | StopGo FLuc: 0%

SMILES: CN(Cc1ccccc1)C(=O)C1CCN(Cc2cc3ccccc3n2Cc2ccccc2)CC1
  StopGo RLuc: -7% | StopGo FLuc: -11%

SMILES: COC(=O)[C@H](C(C)C)N(CCCc1cn(CC2CCCCC2)nn1)S(=O)(=O)c1ccc(F)cc1Br
  StopGo RLuc: ? | StopGo FLuc: ?

SMILES: O=S(=O)(NCc1ccc(Cn2cccn2)cc1)N1CCCCC1
  StopGo RLuc: 4% | StopGo FLuc: 40%[activator]

SMILES: Cc1cc(C)c(NC(=O)CN2CCCN(c3ccc(C(F)(F)F)cn3)CC2)c(Cl)c1
  StopGo RLuc: ? | StopGo FLuc: ?

SMILES: Cc1ccc(-c2n[nH]c(=O)c3ccccc23)cc1S(N)(=O)=O
  StopGo RLuc: 86%[activator] | StopGo FLuc: 24%

SMILES: Cc1ccc(OCCOc2cccc(/C=C(/C#N)c3ccccc3)c2)cc1
  StopGo RLuc: 5% | StopGo FLuc: 103%[activator]

SMILES: CCOC(=O)c1cnn(-c2cccc(F)c2)c1C1CCNCC1
  StopGo RLuc: -16% | StopGo FLuc: -16%

SMILES: O=C(O)c1ccccc1-c1ncc(-c2ccccc2F)o1
  StopGo RLuc: -6% | StopGo FLuc: 73%[activator]

SMILES: Cc1ccccc1Nc1nn2c(=O)c3ccc(C(=O)NCC(C)c4ccccc4)cc3nc2s1 (centres undefined)
  StopGo RLuc: -1% | StopGo FLuc: -12%

SMILES: N#Cc1ccc(N2CCC(C(=O)NC(c3ccc(F)cc3)C3CCCC3)CC2)nc1 (centres undefined)
  StopGo RLuc: -4% | StopGo FLuc: 0%

SMILES: O=C(NCc1ccccc1)c1cccc2cccnc12
  StopGo RLuc: -3%[1.06 µM] | StopGo FLuc: 0%

SMILES: CCCN(CCC)C(=O)Cc1c(-c2ccc(Cl)cc2)nc2ccc(Cl)cn12
  StopGo RLuc: 51%[activator] | StopGo FLuc: 80%[activator]

SMILES: Cc1cc(=O)oc2cc(OCC(=O)NCc3ccccc3)ccc12
  StopGo RLuc: -8% | StopGo FLuc: 18%

SMILES: COc1ccc(NC(=O)CN2C(=O)COc3ccc(S(=O)(=O)NC4CCCC4)cc32)cc1OC
  StopGo RLuc: 15% | StopGo FLuc: -4%

SMILES: O=C(O)C(c1c[nH]c2cc(Cl)ccc12)N1CCN(Cc2ccccn2)CC1 (centres undefined)
  StopGo RLuc: -14% | StopGo FLuc: -12%

SMILES: CCC(CO)NS(=O)(=O)c1cc(Cl)ccc1Cl (centres undefined)
  StopGo RLuc: 47%[activator] | StopGo FLuc: -11%

SMILES: CCCCn1nc(C(=O)Nc2ccc(Br)cc2F)c2ccccc2c1=O
  StopGo RLuc: 23% | StopGo FLuc: 0%

SMILES: CCCCCCCCCOc1ccc(C(=O)c2ccccc2)cc1
  StopGo RLuc: 20% | StopGo FLuc: 0%

SMILES: Cc1ccccc1Nc1nnc(SCC(=O)Nc2ccnn2C2CCCC2)s1
  StopGo RLuc: ? | StopGo FLuc: ?

SMILES: Cc1ccc2nc(-c3ccc(Cl)c(NC(=O)COc4cccc(C)c4C)c3)oc2c1
  StopGo RLuc: 4% | StopGo FLuc: 10%

SMILES: COc1ccc2ccccc2c1C=C(C#N)c1ccccn1
  StopGo RLuc: -11% | StopGo FLuc: 0%

SMILES: COc1cc(/C=C/c2nc(C#N)c(NCCCN3CCOCC3)o2)cc(OC)c1OC
  StopGo RLuc: 37%[activator] | StopGo FLuc: 57%[activator]

SMILES: Cc1ccc(C(=O)N2CCc3cc(CNS(=O)(=O)c4cccs4)ccc32)cc1
  StopGo RLuc: 46%[activator] | StopGo FLuc: -14%

SMILES: COc1cc(NC(=O)CSc2nncn3c2cc2oc(C)cc23)cc(OC)c1
  StopGo RLuc: -9% | StopGo FLuc: 26%

SMILES: COc1ccc(NC(=O)CC2C(=O)N(c3ccc(C)cc3)C(=O)N2CCc2ccccc2)cc1 (centres undefined)
  StopGo RLuc: 130%[activator] | StopGo FLuc: -3%

SMILES: Cc1c(Cl)c(=O)oc2cc(OCC(=O)NCc3cccs3)ccc12
  StopGo RLuc: 6% | StopGo FLuc: 12%

(listing goes on)
| SMILES | StopGo RLuc | StopGo FLuc |
| --- | --- | --- |
| CCn1ccc2c(OCC(=O)Nc3ccccc3C)cccc2c1=O | -4% | -7% |
| CN(Cc1nc2ccccc2n1C(F)F)S(=O)(=O)c1cc(Cl)ccc1Cl | 28% | 19% |
| COc1ccc(NC(=O)c2ccco2)cc1NC(=O)c1cccc(C)c1 | 66%[activator] | 47%[activator] |
| O=C(COc1ccccc1[N+](=O)[O-])Nc1cc(-c2nc3cc(Cl)ccc3o2)ccc1Cl | -13% | 97%[activator] |
| Cc1cc(OC(C)C(=O)NCc2cccnc2)c2c(C)cc(=O)oc2c1 (centres undefined) | -14% | 4% |
| CC1(C)CC(=O)C2=C(C1)OC(N)=C(C#N)C2c1ccco1 (centres undefined) | -8% | -8% |
| Cc1ccc(N=Cc2ccc[nH]2)cc1I | 0% | 0% |
| O=C(NCc1coc(-c2cccs2)n1)c1cc2ccccc2cc1O | 74%[activator] | 0% |
| COc1ccc(C2=NC(c3ccncc3)=Nc3ccc(Br)cc3N2)cc1 | 273%[activator] | 143%[activator] |
| O=C(Nc1ccc(F)cc1F)C1CCN(S(=O)(=O)c2ccc3[nH]c(=O)ccc3c2)CC1 | -3% | -15% |
| COc1cc2c(cc1OC)CN(C(=O)CCc1ncc(-c3c(F)cccc3F)o1)CC2 | -1% | 15% |
| S=C(NCCc1ccc(Cl)cc1Cl)NC1CC2CCC1C2 (centres undefined) | ? | ? |
| O=C(CCC(=O)c1ccc(Cl)cc1)OCc1ccc(Cl)cc1Cl | -9% | 9% |
| O=S(=O)(NCC(Nc1ccc(Cl)cc1)c1ccccc1)c1ccccc1 (centres undefined) | 85%[activator] | -13% |
| CC(=O)c1cccc(NC(c2ccc(F)cc2)c2nnc(-c3ccccc3)o2)c1 (centres undefined) | 61%[activator] | -13% |

(next part)
| SMILES | StopGo RLuc | StopGo FLuc |
| --- | --- | --- |
| CC1CCCN(CCCNC(=O)c2cc3c(Cl)nc4ccccc4c3s2)C1 (centres undefined) | -1% | -14% |
| COc1ccc(Cl)cc1NC(=O)c1cc2c(s1)-c1ccccc1S(=O)(=O)C2 | 11% | 33%[activator] |
| O=[N+]([O-])c1cc(NS(=O)(=O)c2cc(Cl)sc2Cl)ccc1F | 203%[activator] | 12% |
| COc1ccc(-c2nc(Cn3c(=O)cc(C)c4c(C)nn(-c5ccccc5)c43)c(C)o2)c(OC)c1 | -4% | -20% |
| O=C(Nc1cccc(S(=O)(=O)NC2=NCCC2)c1)C1(c2ccc(Cl)cc2)CCCC1 | -3% | 8% |
| O=C(NCCN1CCCCC1)c1ccc(Cn2c(SCc3ccccc3)nc3ccncc32)cc1 | -15% | 1% |
| CN(CC(=O)NC(=O)NCc1ccccc1)Cc1ccccc1 | -7%[1.06 µM] | 22% |
| N#CCOc1nc(N2CCOCC2)nc(N2CCOCC2)n1 | 5% | -17% |
| COc1ccc(OC)c(CNC(=O)c2cc(S(=O)(=O)N3CCC(C)CC3)cn2C)c1 | 25% | -11% |
| O=C(COc1ccc2c(-c3ccccc3)cc(=O)oc2c1)NC1CCCC1 | ? | ? |
| O=C(Cn1c(=O)n(-c2ccc(F)c(Cl)c2)c(=O)c2sc3ccccc3c21)NC1CCCCC1 | 3% | -7% |
| O=C(Nc1cc(C(F)(F)F)ccc1Cl)c1ccc2c(c1)CCN2S(=O)(=O)c1ccccc1 | 7% | 7% |

Screening data: PubChem BioAssay, National Center for Advancing Translational Sciences (NCATS)
